Screens deposited in PubChem by Broad Institute.
PD-1 reverse act: reversal of PD-1 mediated T-cell inhibition | 29,000 tested, under 10 active | activation, % (test concentration not listed) | primary human CD4 T cells, PD-L1 beads, CellTiter-Glo 96 h;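 active means replicate mean of 50% or more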;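 further: 0% = median vehicle wells and 100% = positive control; 100 nL library stock added to about 50 µL; numbers are from one replicate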
YB-1 expression: YB-1 expression inhibition | U2OS, qRT-PCR YB-1 vs CDIP delta delta Cp, 16 h; active compounds read high; zero = DMSO, each unit about twofold | delta delta Cp (YB-1 minus CDIP) (test concentration not listed) | actives 0.37% (n = 30,000) | AID 434959;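 active means delta delta Cp rounded down to an integer at or above 3, about 3 SD of DMSO wells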;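 further: higher means less YB-1 transcript or more CDIP transcript relative to DMSO; stock transfer was 100 nL into about 100 µL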
Shh pathway inh: Sonic Hedgehog pathway inhibition; Shh-LIGHT2 Gli-luciferase reporter, 30 h; AID 2313; actives 2.1% (n = 22,000); inhibition, % (concentration not given with the values);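 active means replicate mean of 65% or more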;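 further: pathway switched on by Shh-conditioned medium diluted 1 in 25 in low serum; 100 nL library stock added to about 40 µL; 0% = median of neutral wells and 100% = positive control level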
MITF inhib: inhibitors of MITF; TRPM1 promoter luciferase, luminescence, 24 h; inhibition, % (concentration not given with the values); actives 0.28% (n = 37,000); AID 2240;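 active means most replicates at 85% or more, or half of them and the mean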;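 further: human melanocyte line stably carrying TRPM1 promoter luciferase reporter; 0% = vehicle wells and 100% = a positive control; the first replicate is given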
Starred values were filed as active, the others as inactive; . = not tested or not shown.

SMILES | PD-1 reverse act | YB-1 expression | Shh pathway inh | MITF inhib
CCOC(=O)CN(C#N)c1nc(C)cc(C)n1 | 0.6 | . | . | -7
CC(C)NC(=O)Nc1ccc2c(c1)CC(=O)N([C@H](C)CO)C[C@H](C)[C@H](CN(C)C(=O)Nc1ccccc1)O2 | 0.6 | -0.047 | -5 | 6
C[C@@H](NC(=O)/C(C#N)=C/c1ccc(O)c(O)c1)c1ccccc1 | -4.9 | 0.15 | 11 | -4
Cc1noc(C)c1S(=O)(=O)N(C)C[C@@H]1Oc2c(NC(=O)C3CC3)cccc2C(=O)N([C@H](C)CO)C[C@@H]1C | 1.4 | -0.12 | -7 | -15
C[C@H]1CN([C@@H](C)CO)C(=O)c2cc(NC(=O)Cc3ccccc3)ccc2O[C@@H]1CN(C)CC1CC1 | 1.6 | -0.17 | -24 | 2
Cc1cc(C)cc(Oc2c(C(F)(F)F)oc3cc(OCC(=O)O)ccc3c2=O)c1 | 6.5 | . | . | -1
CC(=O)O[C@H]1C[C@@H](OC(C)=O)C(C)(C)C2C[C@@H](O)[C@]3(C)C(CC[C@@]4(C)[C@H](c5ccoc5)OC(=O)C5OC543)[C@]21C (some centres undefined) | 0.2 | 0.63 | 31 | 31
C=C(C)C(=O)O[C@H]1C[C@@]2(C)O[C@@H]2[C@H]2O[C@H]2C(=C)[C@@H](O)[C@H]2OC(=O)C(=C)[C@@H]21 | . | -0.51 | 8 | .
Cc1noc(C)c1NC(=O)Nc1cccc2c1O[C@H](CN(C)Cc1ccc(-c3ccccc3)cc1)[C@@H](C)CN([C@@H](C)CO)C2=O | -2.4 | 1.6 | -89 | -4
C[C@H](CO)N1C[C@H](C)[C@@H](CN(C)C(=O)Nc2ccc3c(c2)OCO3)Oc2c(NC(=O)C3CCCCC3)cccc2C1=O | 0.5 | 0.16 | 0 | 11
Cc1cc(C)c(C2=NON3N(C(=O)c4cccs4)c4ccccc4N23)c(C)c1 | -0.8 | 0.27 | . | -5
Cc1noc(C)c1NC(=O)Nc1ccc2c(c1)C(=O)N([C@H](C)CO)C[C@H](C)[C@@H](CN(C)C(=O)Nc1c(C)noc1C)O2 | 0.8 | 0.24 | 9 | -3
Cn1c(-c2ccc(Cl)cc2)cs/c1=N\C(=S)NCCc1ccccc1 | 0.2 | -0.48 | 91* | 4
C[C@@H]1CN([C@H](C)CO)C(=O)Cc2cc(NS(=O)(=O)c3cn(C)cn3)ccc2O[C@H]1CN(C)C(=O)Nc1ccc(F)cc1 | 2.1 | 0.061 | 0 | -8
Cc1noc(C)c1NC(=O)N(C)C[C@@H]1Oc2ccc(NS(=O)(=O)c3cccs3)cc2C(=O)N([C@H](C)CO)C[C@@H]1C | 1.1 | -0.059 | -17 | 1
CCOC(=O)c1c(NC(=O)C2CC(c3cccc(Br)c3)=NO2)sc(C)c1C (centres undefined) | 0.8 | . | . | 9
C[C@@H]1CN([C@H](C)CO)C(=O)c2cccc(NS(=O)(=O)c3ccc(Cl)cc3)c2O[C@H]1CN(C)Cc1ccc(C(F)(F)F)cc1 | 1.2 | -0.39 | 16 | -5
C[C@@H]1CN([C@@H](C)CO)C(=O)Cc2cc(NC(=O)Nc3ccc(F)cc3)ccc2O[C@@H]1CN(C)Cc1ccncc1 | -2.5 | 0.079 | -43 | 1
CCc1c(C)sc(NC(=O)c2ccc(Cn3nc(C)c(Cl)c3C)o2)c1C(N)=O | -2.9 | . | . | -2
C[C@@H]1CCCCO[C@@H](CN(C)C(=O)Nc2ccc(F)cc2)[C@@H](C)CN([C@H](C)CO)C(=O)c2cc(NC(=O)c3ccncc3)ccc2O1 | 0.4 | -0.25 | . | 0
Cc1ccc(-c2nc3ccccc3o2)cc1NC(=O)COc1c(C)cc(Cl)cc1Cl | 2.4 | . | . | -33
O=C(Cn1nc2n(c1=O)-c1ccccc1SC2)NC(=O)Nc1ccccc1 | -1.3 | -0.46 | -19 | 15
C[C@@H]1CN([C@H](C)CO)C(=O)Cc2cc(NC(=O)Cc3ccccc3)ccc2O[C@H]1CN(C)S(=O)(=O)c1ccc(Cl)cc1 | -0.1 | -0.056 | -32 | -6
C[C@@H]1CN([C@H](C)CO)C(=O)c2cc(NS(=O)(=O)c3cccs3)ccc2O[C@@H]1CN(C)C | 2.2 | 0.00077 | . | -4
C[C@@H]1CN([C@H](C)CO)C(=O)c2cccc(NS(C)(=O)=O)c2O[C@H]1CN(C)Cc1ccc(C(F)(F)F)cc1 | -2.8 | 0.033 | -11 | -2

Next part.
SMILES | PD-1 reverse act | YB-1 expression | Shh pathway inh | MITF inhib
CC(=O)Nc1ccc(S(=O)(=O)Nc2ccc(Oc3cccnc3)cc2)cc1 | -0.2 | . | . | 39
C[C@@H]1[C@H]2[C@H](O[C@@H]3O[C@H](CO)[C@@H](O)[C@H](O)[C@H]3O)OC=C(C(=O)O)[C@H]2C[C@@H]1OC(=O)/C=C/c1ccc(O)cc1 | . | 0.87 | -20 | .
OCCOCCNc1ncnc2sc(-c3ccccc3)cc12 | 0.9 | . | . | 1
C[C@@H]1CN([C@H](C)CO)C(=O)c2cc(NC(=O)Cc3cn(C)c4ccccc34)ccc2O[C@H]1CN(C)C(=O)Nc1ccc2c(c1)OCO2 | . | -0.13 | . | -5
C[C@@H]1CCCCO[C@@H](CN(C)C(=O)c2ccccc2)[C@@H](C)CN([C@H](C)CO)C(=O)c2cc(NC(=O)c3ccccc3)ccc2O1 | -0.9 | -0.14 | . | -1
CS(=O)(=O)N(CC(=O)Nc1cc(C(F)(F)F)ccc1Cl)c1ccc(Br)cc1 | -0.3 | . | . | 10
O=C(O)COc1ccc(NC(=O)c2ccccc2-c2ccccc2C(=O)O)cc1 | 3.5 | . | . | -16
Cc1ccc(S(=O)(=O)N(C)C[C@@H]2Oc3ccc(NC(=O)CCCN(C)C)cc3C(=O)N([C@H](C)CO)C[C@@H]2C)cc1 | 1.3 | -0.36 | -9 | 29
CSC1=NC2(CCCCC2)NC2=C1CCCC2 | 7.2 | -0.19 | -14 | -10
COc1ccc(NC(=O)Nc2cccc3c2O[C@H](CN(C)Cc2ccc(C(=O)O)cc2)[C@H](C)CN([C@@H](C)CO)C3=O)cc1 | 1.8 | 0.32 | -7 | -3
C[C@@H]1CN([C@@H](C)CO)C(=O)Cc2cc(NC(=O)C3CC3)ccc2O[C@@H]1CN(C)S(=O)(=O)c1cccs1 | 0.9 | -0.24 | -26 | -9
C[C@H]1CN([C@@H](C)CO)C(=O)Cc2cc(NC(=O)CCCCCC(=O)Nc3ccccc3N)ccc2O[C@@H]1CN(C)Cc1ccc2c(c1)OCO2 | -1.8 | -0.2 | . | -1
Cc1ccc(OCC(=O)Nc2ccc(Br)cc2C(=O)O)cc1C | 0.2 | . | . | -15
O=C1N=c2ccccc2=N/C1=N\C(=S)Nc1ccccc1 | -3.0 | -0.25 | 40 | 9
Cc1ccc(S(=O)(=O)N(C)C[C@@H]2Oc3c(NS(=O)(=O)c4ccccc4)cccc3C(=O)N([C@@H](C)CO)C[C@H]2C)cc1 | 0.6 | -0.24 | -36 | -1
CC(C)NC(=O)Nc1ccc2c(c1)CC(=O)N([C@@H](C)CO)C[C@@H](C)[C@@H](CN(C)C(=O)NC(C)C)O2 | 2.1 | 0.086 | -19 | -9
COc1cc(/C(C)=C/C(C)O)oc(=O)c1C (centres undefined) | 0.7 | 0.3 | 1 | 16
Cc1noc(C)c1NC(=O)N(C)C[C@H]1Oc2ccc(NS(=O)(=O)c3c(C)noc3C)cc2C(=O)N([C@@H](C)CO)C[C@H]1C | . | -0.11 | -27 | 2
CNC[C@@H]1Oc2ccc(NS(=O)(=O)c3ccc(OC)cc3)cc2C(=O)N([C@H](C)CO)C[C@H]1C | 0.4 | -0.33 | -9 | 9
COc1ccc(Cl)cc1N(CC(=O)Nc1ccccc1F)S(C)(=O)=O | -0.1 | . | . | -10
COc1ccc(NC(=O)CC(C(=O)O)N2CCCCC2)cc1 (centres undefined) | 1.0 | . | . | -35
CCOC(=O)c1cc(C#N)c(Nc2ccccc2OC)nc1C(F)(F)F | 4.3 | -0.35 | -30 | -1
C[C@@H]1CN([C@H](C)CO)C(=O)Cc2cc(NC(=O)Cn3cnnn3)ccc2O[C@@H]1CN(C)Cc1ccc(Oc2ccccc2)cc1 | -1.8 | -0.028 | -23 | -11
C[C@@H]1CN([C@H](C)CO)C(=O)c2cc(NC(=O)Cc3ccccc3)ccc2O[C@H]1CN(C)S(=O)(=O)c1ccccc1 | -1.3 | 0.17 | . | -12
COc1ccc(NC(=O)Nc2ccc3c(c2)CC(=O)N([C@@H](C)CO)C[C@H](C)[C@@H](CN(C)Cc2ccc(Cl)c(Cl)c2)O3)cc1 | . | -0.0048 | 11 | 9

Record cards, from the list above. Values in the order: PD-1 reverse act	YB-1 expression	Shh pathway inh	MITF inhib
CC(=O)Nc1ccc(S(=O)(=O)Nc2ccc(Oc3cccnc3)cc2)cc1 in the list: -0.2	.	.	39
CSC1=NC2(CCCCC2)NC2=C1CCCC2 in the list: 7.2	-0.19	-14	-10
Cc1noc(C)c1NC(=O)N(C)C[C@H]1Oc2ccc(NS(=O)(=O)c3c(C)noc3C)cc2C(=O)N([C@@H](C)CO)C[C@H]1C in the list: .	-0.11	-27	2
COc1ccc(NC(=O)Nc2cccc3c2O[C@H](CN(C)Cc2ccc(C(=O)O)cc2)[C@H](C)CN([C@@H](C)CO)C3=O)cc1 in the list: 1.8	0.32	-7	-3
COc1ccc(NC(=O)Nc2ccc3c(c2)CC(=O)N([C@@H](C)CO)C[C@H](C)[C@@H](CN(C)Cc2ccc(Cl)c(Cl)c2)O3)cc1 in the list: .	-0.0048	11	9

(cont.)
SMILES | PD-1 reverse act | YB-1 expression | Shh pathway inh | MITF inhib
Cc1ccc(S(=O)(=O)N(C)C[C@H]2Oc3ccc(NS(C)(=O)=O)cc3CC(=O)N([C@@H](C)CO)C[C@H]2C)cc1 | 5.2 | -0.24 | 19 | -4
C[C@@H]1CN([C@@H](C)CO)C(=O)c2cccc(NC(=O)C3CCOCC3)c2O[C@H]1CN(C)CC1CCCCC1 | 0.8 | -0.11 | 45 | 2
Cc1cc(C(=O)Nc2cccc3c2O[C@@H](CN(C)S(=O)(=O)c2ccc(F)cc2)[C@@H](C)CN([C@H](C)CO)C3=O)n(C)n1 | 1.0 | 0.54 | 28 | -20
C[C@H](CO)N1C[C@H](C)[C@@H](CN(C)CC2CCCCC2)Oc2ccc(NS(=O)(=O)c3cn(C)cn3)cc2C1=O | -0.3 | -0.77 | . | 3
COc1ccccc1N(CC(=O)Nc1c(C)cc(C)cc1C)S(C)(=O)=O | 3.7 | . | . | -6
C[C@@H]1CN([C@H](C)CO)C(=O)Cc2cc(NC(=O)CCC(F)(F)F)ccc2O[C@@H]1CN(C)S(=O)(=O)c1ccc(Cl)cc1 | -0.2 | 0.067 | -16 | -1
Cc1noc(C)c1S(=O)(=O)Nc1ccc2c(c1)CC(=O)N([C@H](C)CO)C[C@@H](C)[C@H](CN(C)C(=O)NC1CCCCC1)O2 | . | 0.028 | 2 | 0
C[C@H]1CN([C@@H](C)CO)C(=O)Cc2cc(NC(=O)Cc3cn(C)c4ccccc34)ccc2O[C@H]1CN(C)Cc1ccc(C(=O)O)cc1 | 0.7 | -0.61 | . | 8
Cc1ccc(S(=O)(=O)N(C)C[C@@H]2Oc3c(NC(=O)Nc4ccc(F)cc4)cccc3C(=O)N([C@H](C)CO)C[C@H]2C)cc1 | -0.6 | 0.22 | -12 | -2
CC(C)NC(=O)Nc1ccc2c(c1)CC(=O)N([C@H](C)CO)C[C@H](C)[C@H](CN(C)C(=O)NC(C)C)O2 | -0.1 | 0.064 | -41 | 12
C[C@@H]1CN([C@H](C)CO)C(=O)Cc2cc(NC(=O)Nc3ccc4c(c3)OCO4)ccc2O[C@@H]1CN(C)Cc1ccccc1 | -0.1 | -0.14 | . | 12
C[C@@H]1CN([C@H](C)CO)C(=O)c2cccc(NC(=O)Nc3ccc(F)cc3)c2O[C@H]1CN(C)C(=O)Nc1ccccc1 | -1.3 | 0.032 | 23 | -1
C[C@@H]1CCCCO[C@H](CN(C)Cc2ccc(C(=O)O)cc2)[C@@H](C)CN([C@H](C)CO)C(=O)c2cc(NS(=O)(=O)c3ccc(F)cc3)ccc2O1 | 3.5 | 0.25 | -12 | -6
COc1ccc(S(=O)(=O)N(C)C[C@@H]2Oc3ccc(NC(=O)Cc4ccccc4)cc3C(=O)N([C@@H](C)CO)C[C@H]2C)cc1 | -2.0 | 0.16 | 16 | 0
Cc1ccc(C(C)C)c(OCCSc2nc(N)cc(N)n2)c1 | -5.3 | . | . | 25
C[C@@H]1CN([C@@H](C)CO)C(=O)c2cc(NC(=O)C3CCCCC3)ccc2O[C@H]1CN(C)C(=O)Nc1ccc2c(c1)OCO2 | . | -0.25 | -8 | -1
C[C@@H]1CN([C@H](C)CO)C(=O)c2cc(NC(=O)Cn3cnnn3)ccc2O[C@@H]1CN(C)Cc1ccc(Cl)c(Cl)c1 | 1.0 | 0.28 | . | -12
C[C@H]1CN([C@@H](C)CO)C(=O)c2cccc(NC(=O)CCCCCC(=O)Nc3ccccc3N)c2O[C@@H]1CN(C)S(=O)(=O)c1ccccc1 | -0.3 | -1.6 | . | -4
OC(COc1ccc2ccccc2c1Br)Cn1cnc2ccccc21 (centres undefined) | -0.5 | . | . | 28

Only part of the results is shown, so the mix of outcomes need not match the whole.
